Source: PubChem BioAssay (ICCB-Longwood Screening Facility, Harvard Medical School)
Ecoli growth: blocks Escherichia coli growth | 0.21% of 330,000 active | OD600 absorbance (test concentration not listed) | OD600, 23 h; hits give low values;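 active = OD600 absorbance below the run mean of sample wells minus 3.6 SD, in any replicate, cut at about 0.56 in these data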;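 note: stock transfer was 300 nL into about 60 µL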
An asterisk follows results filed as active; & = joins results of further samples. Some of the compounds tested; count on the stated rates, not on these rows.

Ecoli growth	compound
0.7	COc1ccc(S(=O)(=O)Nc2ccc3c(c2)C(=O)N(C(C)CO)CC(C)C(CN(C)C(=O)NC(C)C)O3)cc1 (stereo unspecified)
0.7	CON(C)C(=O)C=CCCCCNC(=O)OC(C)(C)C
0.7	CC(O)C1CN=C(N)N1CC(C)(C)C (stereo unspecified)
0.65	Cc1ccc(C=CC(=O)NCCCc2ccccc2)cc1
0.72	O=c1c2ccccc2nc(C=Cc2cccc([N+](=O)[O-])c2)n1CCCO
0.71	C=CCNC(=O)C(=Cc1cn(-c2ccccc2)nc1-c1cccc([N+](=O)[O-])c1)NC(=O)c1ccccc1
0.7	COc1ccc(C=NNC(=O)c2ccccc2)cc1CN1CCN(c2ccc(F)cc2)CC1
0.69	CCOC1OC(C(=O)N2CCOCC2)=CC(c2ccc(C(F)(F)F)cc2)C1CCCO (stereo unspecified)
0.65	CC1CN(C(C)CO)C(=O)c2cc(NS(=O)(=O)c3ccc(F)cc3)ccc2OC1CN(C)C(=O)NC1CCCCC1 (stereo unspecified)
0.73	C[C@@]12CCC=CC1C(c1ccc(C=Cc3ccccc3)cc1F)N(Cc1ccccc1)C2=O (stereo partly specified)
0.67	O=C1CCN(Cc2ccc(O)cc2)CCN1C(CO)Cc1ccccc1 (stereo unspecified)
0.68	CC1CN(C(C)CO)C(=O)Cc2cc(NS(=O)(=O)c3ccc(Cl)cc3)ccc2OC1CN(C)Cc1ccc(C(F)(F)F)cc1 (stereo unspecified)
0.69	Cc1cc(N2CCOCC2)ccc1C=C[N+](=O)[O-]
0.76	CN1C(=CC=C(C#N)C(=O)Nc2ccc(Cl)cc2)C(C)(C)c2ccccc21
0.67&0.65	C=CCC(CC(=O)N(CCO)Cc1ccccc1)C(=O)NCC(OC(=O)C(CC=C)CC(=O)OC(C)(C)C)c1ccccc1 (stereo unspecified)
0.66	CCOC1OC(C(=O)N2CCN(C)CC2)=CC(C2CC2)C1CCCO (stereo unspecified)
0.67	Cc1noc(C)c1COC(=O)C(C)NS(=O)(=O)c1ccc(Cl)c(Cl)c1 (stereo unspecified)
0.69	O=C(C=Cc1ccoc1)c1ccccc1O
0.71	O=C(NCC1CCCO1)c1cccc2c1C(=O)c1ccc(Cl)cc1S2(=O)=O (stereo unspecified)
0.73	C=CC1c2ccccc2N(S(=O)(=O)c2ccc(C)cc2)C(c2ccccc2)C1(C#N)C#N (stereo unspecified)
0.69	NC(=O)C1CCCNc2c(F)cc([N+](=O)[O-])cc2C(=O)NC(CCC(=O)O)C(=O)NC(CO)C(=O)N1 (stereo unspecified)
0.64	Cc1cc(C(=O)OC2C(Cc3ccccc3)NS(=O)(=O)C3CC4C=C[C@]23O4)ccc1[N+](=O)[O-] (stereo partly specified)
0.69	CCOC(=O)C1C2COc3ccccc3C2N2C(=O)N(c3ccc(F)cc3)C(=O)[C@@]12C (stereo partly specified)
0.62	CC=C(C(=CC)c1ccc(O)cc1)c1ccc(O)cc1
0.72	CC=CC(=O)N1CC2(CC(c3cccc(NC(=O)CC(c4ccccc4)c4ccccc4)c3)=NO2)CC1C(N)=O (stereo unspecified)
0.7	O=C1C(=Cc2ccco2)N=C(N2CCCCC2)N1c1ccccc1
0.71&0.68	O=C(Nc1ccccc1)C1=CC(c2ccc(C(F)(F)F)cc2)CC(OCc2ccc(CO)cc2)O1 (stereo unspecified)
0.66	Cc1ccccc1C=CC1=NCCN1
0.67	COc1ccccc1CC(N)=NOC(=O)COc1cc(C)cc(C)c1C
0.68	O=C1C=C(c2ccccc2)CC(c2ccc(Cl)cc2)C1 (stereo unspecified)
0.69	CC1CN(C(C)CO)C(=O)c2cc(NC(=O)Cn3cnnn3)ccc2OC1CN(C)CC1CCCCC1 (stereo unspecified)
0.61	N#CC(=Cc1ccc(O)c(O)c1)C(=O)NCCc1ccccc1
0.68	CC1CN(C(C)CO)C(=O)c2cccc(NC(=O)Nc3ccc(C(F)(F)F)cc3)c2OC1CN(C)C(=O)Nc1ccc(F)cc1 (stereo unspecified)
0.67	CC1CC2OC(=O)C(C)C2C(O)[C@]2(C)C(=O)CCC12 (stereo partly specified)
0.69	CCCCC(=O)N(Cc1ccc(-c2ccccc2-c2nn[nH]n2)cc1)C(C(=O)O)C(C)C (stereo unspecified)
0.73	CCCCN1C(=N)N(C(C)CN2CCCC2CN2C(N)=NCC2Cc2ccccc2)CC1C(C)CC (stereo unspecified)
0.65	O=C1NCC(Cc2cccc3ccccc23)N(CC2CCCCC2)C1=O (stereo unspecified)
0.69	CCCCCCCCCCCCCCCC(=O)OCC(COP(=O)([O-])OCC[N+](C)(C)C)OC(=O)CCCCCCCCCCCCCCC (stereo unspecified)
0.71	CC#CCN1C(=O)NC(c2ccccc2)C(C(=O)OC)=C1C (stereo unspecified)
0.66	CCN1C(=O)C(=CN2CCCc3ccccc32)SC1=S
0.68	Cc1ccc(C(=O)NC(=Cc2ccco2)C(=O)NCC2CCCO2)cc1C (stereo unspecified)
0.72	CC(C)C(C(=O)O)N(Cc1cccc(CN(C(C(=O)O)C(C)C)S(C)(=O)=O)c1)S(C)(=O)=O (stereo unspecified)
0.7	Cc1cc(C(=O)Nc2cccc3c2OC(CN(C)S(=O)(=O)c2ccccc2)C(C)CN(C(C)CO)C3=O)n(C)n1 (stereo unspecified)
0.69	C=CCCC(Cc1ccc(F)cc1)C(=O)OCC1CCCN1C(=O)C(CC=C)CC(=O)N(CCO)Cc1ccccc1 (stereo unspecified)
0.66	CC=CC=CC(=O)Nc1cccc(C2=NOC3(C2)CC(C(N)=O)N(C(=O)c2ccc(Cl)cc2)C3)c1 (stereo unspecified)
0.72	C=CCOc1cccc(C=C2C(=O)N(Cc3ccc(C)cc3)C(C)=C2C(=O)OC)c1
0.62	FC(F)(F)c1cc(CCN2CCNCC2c2ccccc2)cc(C(F)(F)F)c1 (stereo unspecified)
0.72	O=C1NC(=S)NC1=Cc1cccn1-c1ccc([N+](=O)[O-])cc1
0.7	NC(=NOC(=O)c1cccc(Cl)c1)c1ccncc1
0.71&0.69	O=C(CC1CC=CCC(Cc2ccc(F)cc2)C(=O)OCCNC1=O)NC(CO)Cc1ccccc1 (stereo unspecified)
0.69	O=C(O)C1=CC(C2CCCCC2)CC(OCCCCO)O1 (stereo unspecified)
0.72	CC(C)(C)c1ccc(C=CC(=O)O)s1
0.69&0.68	CCOC1OC(C(=O)N2CCOCC2)=CC(C2CC2)C1CCCO (stereo unspecified)
0.71&0.65&0.74&0.75	C=CCCC(Cc1ccc(F)cc1)C(=O)OCC(NC(=O)C(CC=C)CC(=O)NC(CO)Cc1ccccc1)C(C)(C)C (stereo unspecified)
0.77	CCCC(C#Cc1ccc(N(C)C)cc1)=C1c2ccccc2C(=O)N1c1ccccc1
0.71&0.67	C=CCCC(Cc1ccc(F)cc1)C(=O)OCC(C)NC(=O)C(CC=C)CC(=O)NCCO (stereo unspecified)
0.67	C#CCOCCOCCOCCNc1nc(N2CCN(C(=O)Cn3cc(CCCN=C(N)N)nn3)CC2)nc(N2CCN(C(=O)C(C(C)CC)n3cc(CCC(=O)O)nn3)CC2)n1 (stereo unspecified)
0.69	CC(C(=O)Nc1ccc2ccccc2c1)C1C[C@@]1(C)C(N)c1ccccc1 (stereo partly specified)
0.75	CC(NC(=O)c1ccccc1Cl)C(=O)OCC(=O)N1CC2(C)CC1CC(C)(C)C2 (stereo unspecified)
0.67	O=C1C=C(c2ccc(C(=O)O)cc2)CC(c2ccc(Cl)cc2)C1 (stereo unspecified)

Looked up by compound from above, four records:
Ecoli growth	compound
0.71&0.65&0.74&0.75	C=CCCC(Cc1ccc(F)cc1)C(=O)OCC(NC(=O)C(CC=C)CC(=O)NC(CO)Cc1ccccc1)C(C)(C)C (stereo unspecified)
0.72	CC(C)(C)c1ccc(C=CC(=O)O)s1
0.71&0.67	C=CCCC(Cc1ccc(F)cc1)C(=O)OCC(C)NC(=O)C(CC=C)CC(=O)NCCO (stereo unspecified)
0.67	C#CCOCCOCCOCCNc1nc(N2CCN(C(=O)Cn3cc(CCCN=C(N)N)nn3)CC2)nc(N2CCN(C(=O)C(C(C)CC)n3cc(CCC(=O)O)nn3)CC2)n1 (stereo unspecified)

More results follow:
Ecoli growth	compound
0.68	COC(=O)CN1C(=O)C2C(C=Cc3ccccc3)N3C(=O)CN(Cc4ccccc4)C(=O)[C@@]3(C)C2C1=O (stereo partly specified)
0.71	CC1CN(C(C)CO)C(=O)c2cccc(NC(=O)c3ccncc3)c2OC1CN(C)Cc1ccc(Cl)c(Cl)c1 (stereo unspecified)
0.7	Oc1ccc[n+](C=Cc2ccccc2)c1
0.69	O=C1C2CCCCC2C(=O)N1CCCCN1CCN(c2nsc3ccccc23)CC1 (stereo unspecified)
0.69	Cc1ccc2c(c1)COc1c3ccc(C(=O)NC(CO)C(C)C)cc3nn1-2 (stereo unspecified)
0.7	C#CCOCCOCCOCCNc1nc(N2CCN(C(=O)C(CCC(=O)O)n3cc(C(N)CC(C)C)nn3)CC2)nc(N2CCN(C(=O)C(C(C)CC)n3cc(C(N)CO)nn3)CC2)n1 (stereo unspecified)
0.67&0.69	CC(C)(C)C1COC(=O)CCC=CCC(CC(=O)N(CCO)Cc2ccccc2)C(=O)N1 (stereo unspecified)
0.64&0.68	Oc1ccc(CC2CNCCN2CC2(c3ccccc3)CC2)cc1 (stereo unspecified)
0.68	COc1cc(CCCN2C(=S)NCC2Cc2ccc(O)cc2)cc(OC)c1OC (stereo unspecified)
0.64&0.64	NC1=NCC(Cc2ccc(O)cc2)N1CC1CCCCC1 (stereo unspecified)
0.67	O=C(NCCF)C1CC1C(NP(=O)(c1ccccc1)c1ccccc1)c1ccccc1 (stereo unspecified)
0.69&0.7&0.73&0.74&0.74&0.71	C=CCC(CC(=O)N(CCO)Cc1ccccc1)C(=O)NC(COC(=O)C(CC=C)CC(=O)OC(C)(C)C)Cc1c[nH]c2ccccc12 (stereo unspecified)
0.71	CC1CN(C(C)CO)C(=O)c2cccc(NS(=O)(=O)c3ccc(F)cc3)c2OC1CN(C)S(=O)(=O)c1ccccc1 (stereo unspecified)
0.67&0.67	COCCN1C(=O)NC(c2cccc(C(F)(F)F)c2)C(C(=O)OC)C1C (stereo unspecified)
0.68	O=C1CCNCCN1C(CO)Cc1ccccc1 (stereo unspecified)
0.63	CC(C)CC(CNC(=O)OC(C)(C)C)NC(=O)c1nc[nH]c1C(=O)NC(CC(C)C)C(=O)CNCC(CC(C)C)NC(=O)c1nc[nH]c1C(=O)NC(Cc1c[nH]c2ccccc12)C(=O)OC(C)(C)C (stereo unspecified)
0.68	CCC(C)Sc1ccc(C2N[C@@](Cc3ccccc3)(C(=O)OC)C3C(=O)N(CC)C(=O)C23)cc1OC (stereo partly specified)
0.67	C=C1CCC2C(OC(=O)[C@]2(O)CO)C2C(=C)C(O)CC12 (stereo partly specified)
0.75	O=C(O)c1ccc(C=C2SC(=Nc3ccccc3)N(c3ccccc3)C2=O)cc1
0.68	Cc1ccc(S(=O)(=O)C=C2NC(=O)CS2)cc1
0.68	CC(C)C(NC(=O)c1cccc(S(=O)(=O)N2CCCC2)c1)c1nc2ccccc2[nH]1 (stereo unspecified)
0.68	NCCCCC1CN=C(N)N1CCC12CC3CC(CC(C3)C1)C2 (stereo unspecified)
0.71	C=CCC(CC(=O)NCCO)C(=O)NC(COC(=O)C(CC=C)CC(=O)OC(C)(C)C)c1ccccc1 (stereo unspecified)
0.69	CCCN1CCC(=O)N(C(COc2ccccc2)CC(C)C)CC1 (stereo unspecified)
0.68	CC(C)(C)[C@]1(O)CCN2CC3c4ccccc4CCc4cccc(c43)C2C1 (stereo partly specified)
0.7	CCCN1C(=O)C(=Cc2ccc(C)s2)SC1=Nc1ccc(OC)cc1
0.72	COC(=O)c1ccc(C(O)C(C)C(=O)CC(=O)OC(C)(C)C)cc1 (stereo unspecified)
0.75	CCCN1C(=O)C(=Cc2cc(C)n(C)c2C)SC1=Nc1ccc(OCC)cc1
0.68	C#CCOCCOCCOCCNc1nc(N2CCN(C(=O)C(C(C)CC)n3cc(C(N)Cc4ccc(O)cc4)nn3)CC2)nc(N2CCN(C(=O)C(C(C)CC)n3cc(C(N)Cc4ccc(O)cc4)nn3)CC2)n1 (stereo unspecified)
0.71	C#CCOCCOCCOCCNc1nc(N2CCN(C(=O)C(CCC(=O)O)n3cc(C(N)Cc4ccc(O)cc4)nn3)CC2)nc(N2CCN(C(=O)C(C(C)CC)n3cc(C(N)Cc4ccc(O)cc4)nn3)CC2)n1 (stereo unspecified)

Part of the list above in another layout:
SMILES	Ecoli growth
CC(C)CC(CNC(=O)OC(C)(C)C)NC(=O)c1nc[nH]c1C(=O)NC(CC(C)C)C(=O)CNCC(CC(C)C)NC(=O)c1nc[nH]c1C(=O)NC(Cc1c[nH]c2ccccc12)C(=O)OC(C)(C)C (stereo unspecified)	0.63
CC(C)(C)[C@]1(O)CCN2CC3c4ccccc4CCc4cccc(c43)C2C1 (stereo partly specified)	0.68
NCCCCC1CN=C(N)N1CCC12CC3CC(CC(C3)C1)C2 (stereo unspecified)	0.68
CC(C)C(NC(=O)c1cccc(S(=O)(=O)N2CCCC2)c1)c1nc2ccccc2[nH]1 (stereo unspecified)	0.68
CCCN1C(=O)C(=Cc2cc(C)n(C)c2C)SC1=Nc1ccc(OCC)cc1	0.75
CCCN1C(=O)C(=Cc2ccc(C)s2)SC1=Nc1ccc(OC)cc1	0.7

The listing continues.
Ecoli growth	compound
0.67	C=C(C)C(=O)N1CC2(CC(c3cccc(NC(=O)CCCCC)c3)=NO2)CC1C(N)=O (stereo unspecified)
0.72	COC(=O)[C@]1(Cc2ccccc2)NC(c2ccc(-c3ccc(OC)cc3)cc2)C2C(=O)N(C)C(=O)C21 (stereo partly specified)
0.64	CC1CN(C(C)CO)C(=O)c2cccc(NS(=O)(=O)c3cn(C)cn3)c2OC1CN(C)S(C)(=O)=O (stereo unspecified)
0.69	COc1ccc(CN2CCC(=O)N(C(CO)c3ccccc3)CC2)cc1OC (stereo unspecified)
0.68	COC(=O)[C@@]12CCCN1C(c1ccc(-c3cccc(Cl)c3)c(OC)c1)C1C(=O)N(C)C(=O)C12 (stereo partly specified)
0.72	S=C1NCC(CC2CCCCC2)N1CCCCC1CCCCC1 (stereo unspecified)
0.71	O=C(NC(CO)(CO)CO)C1CCCN1S(=O)(=O)c1cccc2cccnc12 (stereo unspecified)
0.75&0.71	C=CCCC(Cc1ccc(F)cc1)C(=O)OCC(NC(=O)C(CC=C)CC(=O)N(CCO)Cc1ccccc1)c1ccccc1 (stereo unspecified)
0.71	N#Cc1ccc(C23CC4(C2)C(CN(Cc2ccc(-c5ccccc5)cc2)C4c2ccccc2)C3c2ccccc2)cc1 (stereo unspecified)
